Lassa entry inh: qHTS for Inhibitors of binding or entry into cells for Lassa Virus | Lassa virus pseudotype entry inhibition, cell reporter; control for the full effect not named in the record | Potency, µM (series often up to 37.9 µM), for inactives: top-dose activity change, negative = inhibition, usual class: inhibitors | actives 1.2% (n = 300,000); active means well fitted inhibition curve with a large enough effect; inconclusive means small, poorly fitted or top-dose-only effect, or effect the other way; inactive means flat fitted curve, though single readings scatter; tested in HEK293 cells; note: % is set by controls: 0 for no effect and ±100 for the full control effect; nearly all actives have a fitted effect of over 50% in size; luciferase read-out
Cruzain inh Det: qHTS Assay for Promiscuous and Specific Inhibitors of Cruzain (with detergent) | Cruzipain (Trypanosoma cruzi), P25779 | purified cruzain, Z-FR-AMC fluorescence, 0.01% Triton | Potency, µM, for the others: max response, negative = inhibition, hits mostly inhibitors | actives 0.43% (n = 200,000) | AID 1478, 2009;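 note: plate controls were neutral wells for no effect and buffer without enzyme for full effect; nearly all actives have a fitted effect of over 40% in size; top concentration of the series not given in the record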
Target sequence (P25779 123-467 limits assumed): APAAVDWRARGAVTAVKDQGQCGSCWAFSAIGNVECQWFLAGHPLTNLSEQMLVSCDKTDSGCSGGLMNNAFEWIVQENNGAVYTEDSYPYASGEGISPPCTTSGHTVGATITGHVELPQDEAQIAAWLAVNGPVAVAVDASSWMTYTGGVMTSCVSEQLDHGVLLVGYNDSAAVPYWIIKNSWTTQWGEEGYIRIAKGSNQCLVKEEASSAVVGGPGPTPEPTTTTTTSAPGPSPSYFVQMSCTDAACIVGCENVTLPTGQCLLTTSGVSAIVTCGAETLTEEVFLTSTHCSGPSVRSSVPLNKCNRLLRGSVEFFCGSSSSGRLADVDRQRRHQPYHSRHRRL
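Enzyme 1.5 nM, Z-FR-AMC 2 uM, NaOAc 100 mM pH 5.5, DTT 5 mM, Triton X-100 0.01%; 15 min RT compound preincubation; kinetic ex360/em450, 60 s delta.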
SARS PLpro yeast: qHTS of Yeast-based Assay for SARS-CoV PLP. S. cerevisiae expressing SARS-CoV PLpro, growth rescue; control for the full effect not named in the record. Potency, µM (highest dose often 32.9 µM), for the others: top-dose activity, positive = growth rescue. actives 0.19% (n = 330,000); active means well fitted rising curve with a large enough effect; inconclusive means small, poorly fitted or top-dose-only effect; inactive means no such curve, though single readings can be large or run the other way; note: 0% is about no effect; nearly all actives have a fitted effect of over 55% in size; growth read by luminescence after 48 h
StopGo reporter: High Throughput Screening for Foot and Mouth Disease Virus Antivirals. human cells with a luciferase reporter of 2A StopGo recoding; control for the full effect not named in the record. Potency, µM (titrated, usually from 57.9 µM), inactives show top-dose signal change, negative = less light. actives 1.2% (n = 410,000). AID 1159524, 2015; active = well fitted falling curve with a large enough effect; inconclusive = small, poorly fitted or top-dose-only effect; inactive = no such curve, though single readings can be large or run the other way; tested in HEK293T cells; note: % is set by controls: 0 for no effect and ±100 for the full control effect; nearly all actives have a fitted effect of over 45% in size; luciferase light after 4 h
Cruzain noTriton: qHTS Assay for Promiscuous and Specific Inhibitors of Cruzain (without detergent); Potency, µM, inactives show max response, negative = inhibition, actives largely listed as inhibitors; actives 2.3% (n = 200,000); purified cruzain, Z-FR-AMC fluorescence, no detergent;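 note: plate controls were enzyme without inhibitor for no effect and buffer without enzyme for full effect; nearly all actives have a fitted effect of over 40% in size; top concentration of the series not given in the record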
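Purified cruzain at 1.5 nM, pre-incubated 15 min with compound at room temperature in 100 mM sodium acetate pH 5.5, 5 mM DTT, 0.00005% Triton X-100. Reaction started with 2 uM Z-FR-AMC; AMC fluorescence increase over 60 s gives rate.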
RE007 growth inh: qHTS Assay for Inhibitors of the HIV-1 protein Vpr; S. pombe RE007 Vpr strain, BacTiter-Glo ATP luminescence, 24 h; control for the full effect not named in the record; Potency, µM (top dose mostly 92.2 µM), for the others: top-dose activity change, negative = less growth; actives 0.21% (n = 360,000); AID 651644, 2012; active = well fitted falling curve with a large enough effect; inconclusive = small, poorly fitted or top-dose-only effect; inactive = no such curve, though single readings can be large or run the other way;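 note: % is set by controls: 0 for no effect and ±100 for the full control effect; nearly all actives have a fitted effect of over 50% in size; the assay follows cell death caused by Vpr and the record does not say whether a fall means rescue or toxicity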
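Fission yeast RE007 carrying one integrated HIV-1 vpr copy, seeded at OD 0.01 in PMG+AL medium with 23 nL pinned compound. Grown 24 h at 30 degrees; viability read by BacTiter-Glo luminescence after 5 min.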
NS1 inh: qHTS Assay for Inhibitors of Influenza NS1 Protein Function. S. cerevisiae slowed by influenza A NS1, growth recovery by OD600. Potency, µM (titrated, usually from 46.1 µM), for inactives: at the highest dose activity, positive = more growth. actives 0.4% (n = 270,000); active means well fitted rising curve with a large enough effect; inconclusive means small, poorly fitted or top-dose-only effect; inactive means no such curve, though single readings can be large or run the other way; note: nearly all actives have a fitted effect of over 50% in size
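Growth recovery, yeast-based: influenza A NS1 expressed in S. cerevisiae causes slow growth, and suppressors are detected by OD600. The parent strain without NS1 is used as positive control.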
MARV entry inh: qHTS for inhibitors of binding or entry into cells for Marburg Virus; actives 1.8% (n = 300,000); Marburg virus pseudotyped entry inhibition, cell reporter; control for the full effect not named in the record; about a third of the inactives were read at about 46 µM; Potency, µM (titrated, usually from 37.8 µM), inactives show top-dose activity change, negative = inhibition, most hits filed as inhibitors; active = well fitted inhibition curve with a large enough effect; inconclusive = small, poorly fitted or top-dose-only effect, or effect the other way; inactive = flat fitted curve, though single readings scatter; tested in HEK293 cells; about a fifth of its hits are not listed in these tables; note: % is set by controls: 0 for no effect and ±100 for the full control effect; luciferase read-out
Starred values were filed as active, the others as inactive; ? = inconclusive; · = not tested or not shown; [ ] = remark or other dose. Unless noted, calls come from the whole dose curve; as a rule, active = well fitted curve in the direction sought with a large enough effect; inconclusive = small, poorly fitted or top-dose-only effect, or another doubt; inactive = no such curve, though single readings can be large; an effect the other way counts as inactive or inconclusive. Potency is the fitted concentration of half-maximal effect.

Structure | Lassa entry inh | Cruzain inh Det | SARS PLpro yeast | StopGo reporter | Cruzain noTriton | RE007 growth inh | NS1 inh | MARV entry inh
Cc1cccc(NC(=O)Nc2ccc3c(c2)N(C)C(=O)CS3)n1 | · | -2.6% | -3% | ? | -12% | -12% | 2% | ·
Cc1[nH]n(-c2ccc([N+](=O)[O-])cc2)c(=O)c1C=NCC1CCCO1 (stereo not drawn) | 27% | · | 0% | 29% | · | ? | 9% | 21%[46.1 µM]
CO[C@H]1O[C@H](C)[C@@H](O)C[C@H]1NC(=O)OCc1ccccc1 | 8%[46.1 µM] | · | -3% | -7% | · | 15% | 3% | 5%[46.1 µM]
Cc1ccc2c(C)c(C(=O)N3CCN(c4cnccn4)CC3)oc2c1C | -16% | · | -10% | -18% | · | -26% | -73% | 11%
CC(C)=C1C2C=CC1C1C(=O)N(c3ccc4c(c3)OCO4)C(=O)C21 (stereo not drawn) | 0% | -2.5% | -118% | -1% | 1% | 32µM* | -8% | 1%
CCCCNC(=O)CCC(=O)Nc1ncc(-c2ccc(C)cc2)n1C | -11% | -2.8% | -2% | 31%[activator] | 5% | 14% | -6% | 7%
NS(=O)(=O)c1ccc(NC(=O)C(=O)Nc2ccc3nc4n(c(=O)c3c2)CCCCC4)cc1 | -4%[46.1 µM] | 1.3% | · | 24% | 3% | · | · | -12%[46.1 µM]
O=C(CSc1ccc2nnc(-c3ccc(Cl)cc3)n2n1)N1CCc2ccccc21 | · | -3.5% | -1% | -3% | 9% | -2% | 3% | ·
O=C(COc1ccc(-c2ccccc2)cc1)NN=C1CCCC1 | ? | · | -2% | -15% | · | 5% | 2% | 1%[46.1 µM]
Cc1ccccc1C(=O)Nc1nc2c(C)csc2c(=O)s1 | · | · | -6% | -8% | · | 6% | -3% | ·

Single entries from the entries so far.
In StopGo reporter, O=C(CSc1ccc2nnc(-c3ccc(Cl)cc3)n2n1)N1CCc2ccccc21 is entered as -3%
In NS1 inh, Cc1cccc(NC(=O)Nc2ccc3c(c2)N(C)C(=O)CS3)n1 is entered as 2%
In Cruzain inh Det, CCCCNC(=O)CCC(=O)Nc1ncc(-c2ccc(C)cc2)n1C is entered as -2.8%
In SARS PLpro yeast, O=C(COc1ccc(-c2ccccc2)cc1)NN=C1CCCC1 is entered as -2%
In Cruzain inh Det, NS(=O)(=O)c1ccc(NC(=O)C(=O)Nc2ccc3nc4n(c(=O)c3c2)CCCCC4)cc1 is entered as 1.3%
In SARS PLpro yeast, Cc1ccc2c(C)c(C(=O)N3CCN(c4cnccn4)CC3)oc2c1C is entered as -10%

Further entries.
Structure | Lassa entry inh | Cruzain inh Det | SARS PLpro yeast | StopGo reporter | Cruzain noTriton | RE007 growth inh | NS1 inh | MARV entry inh
OCC(Cc1ccccc1)NCc1ccccc1C(F)(F)F (stereo not drawn) | 18% | -0.7% | -2% | -20% | -17% | 5% | 11% | ?
Cc1cc(CNC(=O)CCc2nnc(CCCCc3ccccc3)o2)nn1C | -22% | · | 1% | -10% | · | 0% | 5% | 5%[46.1 µM]
COc1cc([N+](=O)[O-])c(OC)cc1SCc1n[nH]c(=S)n1-c1ccc(F)cc1 | 0% | · | 1% | -3% | · | -11% | 6% | ?
CC(C)N(CCNC(=O)C1CCCN(c2ncnc3c2nc2n3CCCCC2)C1)Cc1ccccc1 (stereo not drawn) | 22%[46.1 µM] | · | ? | -5% | · | -10% | -8% | ?
CCOC(=O)C1=C(C)N(C)C(C)=C(C(=O)OCC)C1c1ccccc1 | 17% | -5.3% | 11% | -3% | 10% | -11% | -8% | 1%
O=S(=O)(NCCc1ccccn1)c1ccc(F)c(F)c1 | 9% | 2.5% | 1% | 13% | 6% | 1% | 2% | 0%
O=C(CSc1nnc2scc(-c3ccccc3)n12)NCC1CCCO1 (stereo not drawn) | -35%[14.3 µM] | 5.9% | 0% | 4% | -3% | 0% | -50% | 2%
COc1ccc(CCn2c(O)c(C=Nc3ccc(NC(C)=O)cc3)c(=O)[nH]c2=O)cc1OC | -18%[46.1 µM] | · | 0% | -17% | · | 16% | -5% | ?
Cc1ccc(-c2nc3c4cnn(-c5cc(Cl)ccc5Cl)c4ncn3n2)cc1 | 24%[46.1 µM] | 0.6% | · | 19% | -4% | · | · | ?
CC(=O)N1CCN(C(=O)c2cccc(NS(=O)(=O)c3ccc(Br)cc3)c2)CC1 | 5% | · | -2% | -17% | · | 38% | · | -6%[46.1 µM]
CCOC(=O)/C(N=Nc1c(C)n(C)n(-c2ccccc2)c1=O)=C(\C)O | 1% | -5.6% | -3% | -7% | 0% | -4% | 5% | 7%
Cc1nc2ccccc2c(=O)n1-c1cccc(NS(=O)(=O)c2ccccc2)c1 | -13% | · | -2% | -14% | · | 5% | · | 3%
CN(c1ccccc1)S(=O)(=O)c1ccc(NC(=O)c2cccs2)cc1 | ? | · | 0% | ? | · | 1% | 0% | -7%[46.1 µM]
COc1nc(OC)nc(N2CCC(C(=O)NCc3cccs3)CC2)n1 | 5% | 1.2% | 7% | -19% | 7% | 5% | 0% | -20%
CC(C)c1nc2ccc(NC(=O)C3CCCCC3)cc2[nH]1 | 5% | -1.1% | 7% | 18% | -4% | 3% | -13% | 16%
Cc1ccccc1OCC(=O)N/N=C/c1ccc2c(c1)OCCO2 | ? | -5.3% | -21% | 29% | -14% | 25% | -20% | 1%
CCOC(=O)c1ccc(C(=O)OCC)c(NC(=S)Nc2ccc([N+](=O)[O-])cc2OC)c1 | -4% | -12% | -16% | -13% | -6% | -7% | 5µM* | 19%
CCN1CCN(c2ccc(N)cc2)CC1 | 8%[46.1 µM] | · | 1% | -14% | · | -6% | · | ?
COc1ccc(Cl)cc1NC(=O)CSc1nc(Nc2ccccc2)nc(N2CCOCC2)n1 | · | · | 0% | ? | · | 7% | 10% | ·
O=C(OCc1nc2ccccc2s1)c1ccc(Br)o1 | ? | · | -11% | 9% | · | -21% | · | ?
COCCCN1C(=O)C(=O)/C(=C(/O)c2ccccc2)C1c1ccc(N(C)C)cc1 (stereo not drawn) | 15% | -6.2% | 0% | 14% | -11% | ? | -6% | 1%
COCCNC(=O)c1c(NC(=O)c2ccc(Br)o2)n(Cc2ccccc2)c2nc3ccccc3nc12 | -27% | -26% | -9% | -12% | ? | -3% | ? | 10%
CN(C(=O)COC(=O)c1ccc2ccccc2n1)C1CCS(=O)(=O)C1 (stereo not drawn) | -1% | · | 0% | 24% | · | 3% | 5% | -1%[46.1 µM]
COc1ccc(CN(C)CC2CCCN(CCc3ccc(F)cc3)C2)c(OC)c1OC (stereo not drawn) | · | · | -2% | -27% | · | -7% | 2% | ·
Cn1c(=O)c2c(nc(Oc3ccc(-c4ccccc4)cc3)n2C)n(C)c1=O | ? | 5.0% | -9% | · | 8% | -4% | -15% | 25%
COc1ccc2cc(C(=O)C3CCCN(C(=O)Cc4c(C)noc4C)C3)ccc2c1 (stereo not drawn) | ? | · | -1% | 24% | · | 5% | 0% | ?
COc1ccccc1NC(=O)c1ccccc1S(=O)(=O)c1ccccc1[N+](=O)[O-] | -17% | · | 1% | 0% | · | 13% | · | 7%
COCCNC(=O)C(=O)Nc1c2c(nn1-c1ccccc1)CS(=O)(=O)C2 | 1%[46.1 µM] | -1.3% | · | -10% | -23% | · | · | ·
COC(=O)Cc1c(C)c2ccc(OCC(=O)NC3CCS(=O)(=O)C3)cc2oc1=O (stereo not drawn) | 15%[46.1 µM] | · | -2% | 1% | · | 5% | -6% | 8%[46.1 µM]
CCc1ccc(N2CN(Cc3cccnc3)CNC2=S)cc1 | -1% | · | -1% | 0% | · | 4% | 6% | -7%[46.1 µM]
Cc1cccc(NC(=O)C(Cc2ccccc2)c2nn[nH]n2)c1C (stereo not drawn) | · | · | -4% | -8% | · | 1% | 19% | ·
Cc1nnsc1C(=O)NNS(=O)(=O)c1ccccc1 | ? | 1.1% | 1% | 58%[activator] | -7% | 10% | -9% | ?
O=C(CSCc1ccc(Br)cc1)N1CCOCC1 | 20% | -0.1% | 3% | · | -9% | 4% | -6% | 25%
COc1ccc(CC(=O)Nc2sc3c(c2C(=O)Nc2ccccc2)CCCCC3)cc1 | -8%[46.1 µM] | -4.3% | · | -14% | 4% | · | · | ·
CCc1[nH]nc(C(=O)NC2CCCc3c2cnn3-c2cc(C)cc(C)c2)c1C (stereo not drawn) | ? | · | -4% | 27% | · | 22% | -73% | 3.5µM*
CCc1c(C(=O)N/N=C/c2ccco2)nnn1-c1nonc1N | 4% | · | -3% | -14% | · | 1% | -14% | 0%[46.1 µM]
CCN(CC)S(=O)(=O)c1cc(NC(=O)C(C)Nc2ccccc2N2CCOCC2)ccc1C (stereo not drawn) | ? | · | -1% | -24% | · | -1% | · | ?
Cc1c(C)[n+](=O)c(-c2ccc(Br)cc2)c(C)n1[O-] | 18%[46.1 µM] | · | 1% | -11% | · | 4% | 2% | -19%[46.1 µM]

Record cards (already shown).
O=C(CSCc1ccc(Br)cc1)N1CCOCC1 is entered as Lassa entry inh = 20%; Cruzain inh Det = -0.1%; SARS PLpro yeast = 3%; StopGo reporter = ·; Cruzain noTriton = -9%; RE007 growth inh = 4%; NS1 inh = -6%; MARV entry inh = 25%
Cc1cccc(NC(=O)C(Cc2ccccc2)c2nn[nH]n2)c1C (stereo not drawn) is entered as Lassa entry inh = ·; Cruzain inh Det = ·; SARS PLpro yeast = -4%; StopGo reporter = -8%; Cruzain noTriton = ·; RE007 growth inh = 1%; NS1 inh = 19%; MARV entry inh = ·

Source: PubChem (National Center for Advancing Translational Sciences (NCATS))
